PINK1 expr mod = changes PINK1 expression; PINK1 immunofluorescence, high-content cytometry, 24 h; Potency, µM (doses to about 76.6 µM), for the others: at the highest dose activation (PINK1 increase), actives largely listed as activators; hit rate 0.2% among 410,000; active = well fitted activation curve with a large enough effect; inconclusive = small, poorly fitted or top-dose-only effect; inactive = flat fitted curve, though single readings scatter; cell line not stated here;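 further: % of control where 0% means no effect; nearly all actives have a fitted effect of over 65% in size; a mitochondrial uncoupler was the plate control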
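Measures PINK1 amount and localization on or inside mitochondria by immunofluorescence. Stable cells get compounds at 5 concentrations for 24 hours before fixation and staining; CCCP controls included.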
* = called active by the depositor; ? = inconclusive. Potency means the concentration at half of the fitted maximal effect. Only part of the results is shown. The share of hits here may be higher or lower than overall.

SMILES	PINK1 expr mod
CC(C)(C)C(=O)NC1CC(=O)N(c2ccc3c(c2)OCCO3)C1 (stereo unspecified)	0.2%
Cc1ccccc1-c1nc(CS(=O)(=O)CC(=O)Nc2c(C)cccc2C)c(C)o1	6.5%
COc1cc(-c2nc3sccn3c2Nc2c(C)cccc2C)ccc1O	-0.3%
Cc1c(C(=O)N2CCCC2)sc2ncnc(NCCc3ccccn3)c12	0.4%
CCOc1ccccc1CNC(=O)Cn1ncn2nc(-c3cccs3)cc2c1=O	-0.1%
COc1ccc(Cl)cc1NC(=O)c1cc(S(=O)(=O)N2CCc3ccccc32)cn1C	7.8%
O=C(Nc1ccc(Br)cc1)C1CCN(c2ncccn2)CC1	0.0%
CC(C)c1ccc(NC(=O)Cn2cc(S(=O)(=O)N3CCN(c4ccccc4F)CC3)c3ccccc3c2=O)cc1	0.3%
COc1ccc(C(=O)NCC(c2cccnc2)N2CCc3ccccc32)cc1 (stereo unspecified)	-1.7%
COc1ccc(C)cc1N(C)C(=O)c1c2c(nc3ccccc13)C(=O)N(C1CCCCC1)C2	-0.4%
CCOC(=O)c1ccc(OC(=O)c2cn(-c3ccc(C)cc3)c(=O)c3ccccc23)cc1	-0.1%
OCCNc1nc(Nc2ccccc2C(F)(F)F)nc(N2CCCC2)n1	1.5%

The list goes on, starting with the last 4 of the part before.
SMILES	PINK1 expr mod
COc1ccc(C(=O)NCC(c2cccnc2)N2CCc3ccccc32)cc1 (stereo unspecified)	-1.7%
COc1ccc(C)cc1N(C)C(=O)c1c2c(nc3ccccc13)C(=O)N(C1CCCCC1)C2	-0.4%
CCOC(=O)c1ccc(OC(=O)c2cn(-c3ccc(C)cc3)c(=O)c3ccccc23)cc1	-0.1%
OCCNc1nc(Nc2ccccc2C(F)(F)F)nc(N2CCCC2)n1	1.5%
COc1ccc(CNc2oc(-c3ccc(COc4ccccc4C)o3)nc2C#N)cc1	5.0%
CCCCN(CC)CCCNC(=O)Cn1nc(CC)n2c(cc3sccc32)c1=O	0.6%
COc1ccc(C(=O)c2oc3ccccc3c2NC(=O)c2ccc(F)cc2)cc1	-4.7%
CCOC(=O)c1c(NC(=O)c2ccc(S(=O)(=O)N(CCOC)CCOC)cc2)sc2c1CC(C)(C)NC2(C)C	2.9%
CC(C)CCNC(=O)C1CCC(Cn2c(=O)c3sccc3n(CC(=O)NC(C)C)c2=O)CC1 (stereo unspecified)	0.7%
Cc1ccc(C)c(OCCSc2nc3ccccc3n2CC(=O)N2CCOCC2)c1	-0.6%
COc1cc(OC)c(OC)cc1/C=C/c1nccc2ccccc12	11%
Cc1ccc(C(=O)Nc2nnc(SCc3cc(=O)n4ccc(C)cc4n3)s2)cc1	0.0%
COc1cc(C2NC(=O)N(C)C3=C2C(=O)N(c2cccc(Cl)c2)C3)ccc1O (stereo unspecified)	0.4%
CC(C)COc1ccc(Nc2ncnc3ccc(Br)cc23)cc1	-3.8%
COc1cccc(NC(=O)Nc2ccc3snnc3c2)c1	?
COc1ccc(Br)cc1CNC(=O)CCCn1c(=O)c2cccn2c2ccccc21	0.7%
CCOC(=O)c1cccc(NC(=O)C2CCN(S(=O)(=O)c3ccc4c(c3)oc(=O)n4C)CC2)c1	0.5%
Cc1ccc2oc(-c3cccc(NC(=O)COc4ccc(Cl)cc4)c3C)nc2c1	0.1%
CC(c1ccccc1)n1cc2c(c1-c1ccccc1Br)c(=O)n(C)c(=O)n2C (stereo unspecified)	-1.1%
CCOc1ccc(-c2nc(-c3ccccc3)c(-c3ccccc3)[nH]2)cc1OCC	0.6%
O=C(NCCc1ccc(F)cc1)C(=O)NCC(c1ccco1)S(=O)(=O)c1ccccc1 (stereo unspecified)	1.3%
CCOC(=O)c1noc2ncnc(N3CCN(c4cccc(Cl)c4)CC3)c12	-0.7%
COc1cccc(C(=O)NC(=O)Nc2ccc(-c3cc(C(F)(F)F)nn3-c3ccccc3)cc2)c1	-0.4%
Cc1nn(C)c2c1c(C(F)(F)F)cc(=O)n2Cc1cccc(Br)c1	6.2%
COc1cccc(CNC(=O)Cn2ncc3c4ccccc4n(Cc4ccccc4)c3c2=O)c1	15%
Cc1cccc(NC(=O)N2CCC(N3CCN(Cc4ccccc4)C(=O)C3=O)CC2)c1C	1.0%
CCc1ccc(C(=O)c2cn(CC(=O)Nc3ccc4c(c3)OCO4)c3ccc(F)cc3c2=O)cc1	0.0%
Cc1ccccc1N1CC(c2nc3ccccc3n2CCC2CCCCC2)CC1=O (stereo unspecified)	-1.8%

Overlap with the part before: five compounds, followed by the next part.
SMILES	PINK1 expr mod
Cc1nn(C)c2c1c(C(F)(F)F)cc(=O)n2Cc1cccc(Br)c1	6.2%
COc1cccc(CNC(=O)Cn2ncc3c4ccccc4n(Cc4ccccc4)c3c2=O)c1	15%
Cc1cccc(NC(=O)N2CCC(N3CCN(Cc4ccccc4)C(=O)C3=O)CC2)c1C	1.0%
CCc1ccc(C(=O)c2cn(CC(=O)Nc3ccc4c(c3)OCO4)c3ccc(F)cc3c2=O)cc1	0.0%
Cc1ccccc1N1CC(c2nc3ccccc3n2CCC2CCCCC2)CC1=O (stereo unspecified)	-1.8%
O=C(NCCCc1nc2ccccc2n1Cc1ccccc1F)c1ccco1	0.3%
COCCCNc1ncnc2c1cnn2-c1ccc(F)cc1	6.4%
Cc1ccc(NC(=O)C2CCCN(S(=O)(=O)c3cccc4cccnc34)C2)c(C)c1 (stereo unspecified)	-2.0%
COc1cccc(NC(=O)c2sc3nc(C)c(C(=O)Nc4ccc(C)cc4C)c(-c4ccc(Br)cc4)c3c2N)c1	2.2%
C[C@@H]1CN(Cc2ccc3c(c2)CN(Cc2coc4ccccc4c2=O)CCO3)C[C@H](C)O1	0.1%
COc1ccc(-c2cn3nc(N4CCCC(C(=O)Nc5ccc(C)c(C)c5)C4)sc3n2)cc1 (stereo unspecified)	-1.5%
Cc1ccc(S(=O)(=O)N2CCN(Cc3ccccc3)CC2)c(C)c1NS(C)(=O)=O	0.5%
COc1ccc(-c2noc(CSc3nnc(-c4ccc(Cl)cc4)n3C)n2)cc1OC	0.4%
Cc1cc(O)c(-c2ccnc3cc(-c4ccccc4)nn23)cc1Cl	8.8%
Cc1ccc2[nH]c3c(=O)n(CC(=O)N(CCN(C)C)Cc4ccccc4)ncc3c2c1	6.1%
Cc1ccc2c(=O)c(C(=O)c3ccccc3)cn(CC(=O)Nc3ccccc3)c2n1	-0.9%
CC(C)OC(=O)c1cccnc1SCC(=O)Nc1ccc(C(F)(F)F)cc1Cl	3.8%
Cc1c2cnn(CC(=O)NC(C)C)c(=O)c2c(C)n1Cc1cccc(Cl)c1	-1.5%
COc1cccc(OCc2cc(C3Nc4ccccc4C(=O)N3Cc3ccccc3)ccc2OC)c1 (stereo unspecified)	1.0%
Cc1ccc(CCNC(=O)CCSCc2ccccc2F)cc1	-0.1%
O=C(Cn1ncc2c(Cl)cccc21)NCc1cccc(Cl)c1	7.2%
COc1ccccc1N1CCN(C(=O)c2cnn(-c3cccc(Cl)c3)c2C2CCN(C(=O)OC(C)(C)C)CC2)CC1	1.5%
Cc1c(CNC2CCCCCC2)c(C(=O)O)c(C)n1Cc1ccc(F)cc1Cl	-0.3%
CN(C)c1ccc(CNC(=O)c2sc3ncccc3c2-n2cccc2)cc1	-0.4%
Cc1ccc(C)c(N2CCN(C(=O)CCn3c(=O)[nH]c4ccccc4c3=O)CC2)c1	3.7%
O=C(Cn1c(-c2cccs2)cc2ccccc21)NCCCN1CCN(c2ccc(F)cc2)CC1	-1.0%
CN(C)S(=O)(=O)N1CCC(n2c(C(F)(F)F)nc3cccnc32)CC1	-0.2%
CNc1ccc(C=C2c3ccccc3-c3ccccc32)cc1	8.7%
COC(=O)c1c(NC(=O)C(C)Oc2ccc(Cl)cc2Cl)sc2c1CCCC2 (stereo unspecified)	1.1%

Some of the entries so far, field by field:
CN(C)c1ccc(CNC(=O)c2sc3ncccc3c2-n2cccc2)cc1
  PINK1 expr mod: -0.4%

O=C(Cn1c(-c2cccs2)cc2ccccc21)NCCCN1CCN(c2ccc(F)cc2)CC1
  PINK1 expr mod: -1.0%

Further records.
SMILES	PINK1 expr mod
CC(C)OCCCNC(=O)c1nn(C)c2c1CSc1ccccc1-2	-0.4%
COc1ccc(C(=O)Oc2c(Sc3ccc(Cl)cc3)c(C)nn2C(C)(C)C)cc1OC	14%
Cc1ccc(CN2C[C@H](Sc3ccccn3)C[C@H]2C(=O)Nc2ccc3sc(C)nc3c2)cc1	-0.1%
CSc1ncc(C(=O)NCc2ccc(C)cc2)c(-c2ccccc2)n1	1.4%
Cc1cc(C)cc(-n2ccnc2SCC(=O)Nc2ccccc2F)c1	-3.5%
O=C(Cc1ccccc1)N(Cc1cccnc1)c1nc2ccc(F)cc2s1	14%
COc1ccc(CCNC(=O)c2cccc(Nc3nc4ccccc4nc3-n3nc(C)cc3C)c2)cc1OC	-0.7%
CC(=O)C1=C(c2ccc(C)cc2)N(C(C)=O)n2c(nnc2C2CCCCC2)S1	2.4%
CC(C)(C)c1ccc(-c2nc3cc(NC(=O)c4cc5ccccc5o4)ccc3o2)cc1	1.4%
COc1ccc(N2Cc3cccc(C(=O)Nc4ccc(C)cc4)c3C2=O)cc1	1.8%
Cc1ccc(-n2c(=O)c3ccc(C(=O)NCc4ccco4)cc3n(Cc3ccc(Cl)cc3)c2=O)cc1	4.1%
Cc1ccc(S(=O)(=O)Nc2ccc(-c3ccc(N4CCCCCC4)nn3)cc2)c(C)c1	-0.8%
COC(=O)c1sccc1S(=O)(=O)N1CCN(c2ccc(Cl)cc2)CC1	0.8%
COc1ccc(/C=C/C(=O)c2cc(C(=O)/C=C/c3ccc(OC)cc3)c(O)cc2O)cc1	0.7%
CN(C)c1ccc(CNC(=O)C(Cc2ccccc2)NS(=O)(=O)c2ccc3c(c2)oc(=O)n3C)cc1 (stereo unspecified)	-0.3%
CCN(C(=O)CSc1nc2ccccc2n1CC(=O)Nc1ccc(F)cc1F)c1ccccc1	-1.2%
COc1ccc(NC(=O)Cn2cc(S(=O)(=O)c3ccc(C)cc3)c(=O)c3ccccc32)cc1OC	1.1%
Cc1ccc(N2CCN(c3c(CN4CCCC4)c(=O)oc4ccccc34)CC2)c(C)c1	0.2%
CCOc1cc(CNC(=O)c2ccc3nc(C(C)C)oc3c2)cc(OCC)c1OCC	1.2%
CCOC(=O)c1cc(-c2ccc(C)cc2)n(CCC(=O)NCCc2ccc(C)cc2)c1C	0.1%
CCOC(=O)c1c(C)[nH]c(C)c1S(=O)(=O)N1CCC(C(=O)NCc2ccccc2)CC1	-0.4%
Cc1ccc(CCNC(=O)c2ccc(CS(=O)(=O)c3ccc(Br)cc3)o2)cc1	5.8%
CCCCOc1ccc(NC(=O)c2cc3c(n(-c4ccc(Cl)cc4)c2=O)CCCC3=O)cc1	0.9%
CC(=O)N1CCN(C(=O)C(=O)Nc2c3c(nn2-c2ccc(Cl)cc2)CSC3)CC1	0.5%
Cc1nc2nc(SCC(=O)NCc3ccccc3Cl)nn2c(C)c1Cc1ccccc1	-0.8%
COc1ccc(-c2cc(C(=O)Oc3ccc(C)cc3)c3ccccc3n2)cc1	6.3%
CC1(C)N=C(c2ccc(F)cc2)C(=O)N1CC(=O)Nc1ccccc1Cl	1.1%
CCCCc1nn2c(=O)cc(COC(=O)c3ccccc3NC(=O)C3CCCCC3)nc2s1	-0.7%
O=C(O)c1ccc(-c2noc(-c3cccc(C(F)(F)F)c3)n2)cc1	0.0%
Cc1cccc(CSCCNC(=O)CN(c2ccccc2)S(=O)(=O)N(C)C)c1	-1.3%
Cc1cc(Br)cc(C)c1NC(=O)c1cnc2ccccn2c1=O	0.5%
CC1=Nc2cc(C(=O)NC(C)C)ccc2Sc2ccc(C)cc21	9.1%
CCOc1ccc(CNC(=O)CS(=O)(=O)c2cccc3nsnc23)cc1	-1.3%
Cc1ccc(N(Cc2cccs2)C(=O)c2ccc(OC(C)C)cc2)cc1	3.2%
CCCOc1ccc(NC(=O)CC2C(=O)N(c3ccc(C)cc3)C(=O)N2CCc2ccncc2)cc1 (stereo unspecified)	-0.4%
CCCCNC(=O)C1CCN(c2nc3ccccc3nc2C(F)(F)F)CC1	0.8%
COc1ccc(-c2cc(C(=O)NCc3cc(OC)c(OC)c(OC)c3)[nH]n2)cc1	1.4%
COc1cc([N+](=O)[O-])ccc1NC(=O)N1CCC2(CC1)Nc1ccccc1-n1cccc12	1.4%
CCc1cccc(CC)c1NC1=NS(=O)(=O)c2ccccc21	1.4%
Cc1oc2ncn(C)c(=O)c2c1C(=O)NC(C)c1ccccc1 (stereo unspecified)	0.7%
COc1cccc(Cn2c(=O)n(Cc3ccccc3)c(=O)c3c2c2cc(OC)ccc2n3C)c1	4.1%
Cc1cc2ccccc2n1-c1ccc(C(=O)N2CCC(C(=O)NCc3ccccc3Cl)CC2)s1	4.4%
COc1ccc(C2C(C(=O)Nc3ccc(C)cc3C)=C(C)Nc3nc(SCc4cccc(C)c4)nn32)c(OC)c1 (stereo unspecified)	2.5%
CCc1ccc(OCc2nc(-c3ccc(OC)c(OC)c3)no2)c(Br)c1	4.0%
CCOC(=O)c1c(-c2ccccc2)csc1NC(=O)c1cc(-c2cccc(Cl)c2)on1	0.3%
Nc1nonc1C(=O)NCCNCc1ccccc1F	1.2%
CCc1nc(SC)ncc1C(=O)N1CCN(c2cc(C)ccc2C)CC1	3.3%
COc1cccc(-n2cc(C(=O)Nc3cc(OC)c(OC)c(OC)c3)c3ccccc3c2=O)c1	7.1%
O=C(Nc1cccc(Br)c1)N1CCN2CCCCC2C1 (stereo unspecified)	-0.5%
Cc1ccc(Nc2nc3ccc(C(=O)c4ccccc4)cc3n3c(C)nnc23)c(C)c1	0.0%
CCOc1ccc(CCNC(=O)c2nn(C)c3c2CSc2ccccc2-3)cc1	1.9%
Cc1ccc2cc(CNC(C)CO)c(N3CCC(O)CC3)nc2c1 (stereo unspecified)	0.0%
Cc1cccc(N2CCN(C(=O)c3c(C)oc4ncnc(N5CCOCC5)c34)CC2)c1C	28%
COc1cc(OC)cc(C(=O)N2CC(=O)Nc3ccc(Cl)cc3C2c2ccccc2)c1 (stereo unspecified)	-0.4%

Bioassay records from PubChem BioAssay.
